A647 fluor: compound autofluorescence in A647 spectral region. Compound fluorescence, A647 channel (570/671 nm), Tris buffer. max dye-equivalent concentration, M. 59,000 tested, under 10 active. AID 592; active means above 1 µM dye equivalent; inconclusive means 0.1 to 1 µM; inactive means 0.1 µM or less;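 note: values scaled relative to a standard on each plate; highest value over a series up to 38 µM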
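Each compound's intrinsic fluorescence at 570 nm excitation and 671 nm emission is measured across its concentration series in 100 mM Tris, pH 8.0, after 15 min at room temperature, and reported relative to an A647 curve.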
TSHR agonist: activates the human thyroid stimulating hormone receptor; P16473; 73,000 tested, 0.48% active; AID 926; HEK293-CNG-TSHR cells (CNG channel as cAMP sensor), membrane potential dye, cAMP; Potency, µM (top dose mostly 57.1 µM), for the others: top-dose activation, most hits filed as activators; active = well fitted activation curve of enough size with the parental cells flat; inconclusive = any curve in the parental cells; inactive = parental cells flat and receptor cells flat or falling; note: potency is the fitted concentration of half-maximal effect; % of control where 0% means no effect; weak receptor curves with flat parental cells got no call and are not listed
Target sequence (P16473 whole entry, looked up): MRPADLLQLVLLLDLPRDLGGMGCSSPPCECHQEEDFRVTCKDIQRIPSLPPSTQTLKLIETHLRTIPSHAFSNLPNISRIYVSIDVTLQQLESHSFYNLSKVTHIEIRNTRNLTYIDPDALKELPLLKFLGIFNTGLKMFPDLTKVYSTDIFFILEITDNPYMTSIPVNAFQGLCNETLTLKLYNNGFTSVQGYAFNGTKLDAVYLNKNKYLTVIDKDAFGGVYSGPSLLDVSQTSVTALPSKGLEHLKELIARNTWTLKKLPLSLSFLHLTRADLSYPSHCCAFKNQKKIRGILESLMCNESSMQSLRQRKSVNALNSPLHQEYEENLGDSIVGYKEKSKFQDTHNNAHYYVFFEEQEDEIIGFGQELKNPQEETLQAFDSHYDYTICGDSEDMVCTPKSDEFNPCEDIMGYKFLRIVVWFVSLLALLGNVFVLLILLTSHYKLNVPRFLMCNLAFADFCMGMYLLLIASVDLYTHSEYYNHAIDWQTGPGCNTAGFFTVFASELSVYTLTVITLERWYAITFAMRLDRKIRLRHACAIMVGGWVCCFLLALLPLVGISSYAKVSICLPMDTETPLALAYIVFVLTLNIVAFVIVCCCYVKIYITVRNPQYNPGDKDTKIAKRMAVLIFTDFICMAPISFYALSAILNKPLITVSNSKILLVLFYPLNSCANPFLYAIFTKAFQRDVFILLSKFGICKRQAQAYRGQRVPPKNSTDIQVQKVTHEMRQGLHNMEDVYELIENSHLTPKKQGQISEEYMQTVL
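HEK 293 cells stably expressing TSHR and a cAMP-gated CNG channel; parental CNG-only cells as counterscreen. Cells preloaded 60 min with membrane potential dye plus 100 uM RO 20-1724, then compound 30 min; fluorescence read at 590 nm.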
Resorufin autofl: compound fluoresces in the resorufin spectral region. 59,000 tested, 0.04% active. max dye-equivalent concentration, M. AID 588. Compound fluorescence, resorufin region 547/598 nm, buffer; active compounds read high; active = above 10 nM dye equivalent; inconclusive = 1 to 10 nM; inactive = 1 nM or less; a few of its hits are not listed in these tables; note: highest value over a series up to 38 µM
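Intrinsic fluorescence profiled in the resorufin window (ex 547 nm, em 598 nm) after 15 min at room temperature in pH 8.0 Tris buffer (100 mM); responses normalized against a six-point resorufin standard series as dye-equivalent concentration.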
A488 autofl: A488 region autofluorescence; 59,000 tested, 0.1% active; max dye equivalency, M; compound autofluorescence, A488 spectral region, dye equivalency; active compounds read high; active = above 10 nM dye equivalent; inconclusive = 1 to 10 nM; inactive = 1 nM or less; about half of its hits are not listed in these tables;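 note: highest value over a series up to 38 µM; compound alone in buffer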
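Compounds pin-transferred into 100 mM Tris buffer, pH 8.0, incubated 15 min at room temperature, then imaged with 480 nm excitation/540 nm emission filters. Fluorescence converted to Alexa 488 dye-equivalent concentration via an on-plate six-point A488 standard curve.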
AID923: qHTS Assay for Allosteric/Competitive Inhibitors of Caspase-1: Spectroscopic Profiling in AFC Spectral Region; Potency, µM (highest dose often 57.5 µM), without a hit: at the top dose fluorescence increase, usual class: activators; AID 923, 2007; compound fluorescence, AFC spectral region (405/520 nm); almost no hit is shown here; 75,000 tested, 1.1% active; active = well fitted activation curve with a large enough effect; inconclusive = small, poorly fitted or top-dose-only effect;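 note: potency is the fitted concentration of half-maximal effect; 0% is about no effect; scaled to a free AFC standard on each plate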
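Titrations up to 57 uM read every 20 sec for 3 min (405/520 nm) with 50 nM caspase 1 and 5 uM Ac-WEHD-AFC, pH 7.5 HEPES buffer. Fluorescence-vs-time intercept gave baseline, scaled against on-plate AFC standard.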
Numbers without * were called inactive; i = inactive; ? = inconclusive; · = not tested or not shown; [ ] = dose if it differs, or a comment. Not all compounds are listed; rates above refer to the full screens.

| SMILES | A647 fluor | TSHR agonist | Resorufin autofl | A488 autofl | AID923 |
| --- | --- | --- | --- | --- | --- |
| Cc1cc2c(cc(C(=O)O)n2C)s1 | 3.6e-08 | -1%[11.4 µM] | i | i | -0.1% |
| O=C1O/C(=C\C(=O)N2CCOCC2)c2ccccc21 | · | 4% | · | · | -0.4% |
| COc1cc(C2C(C#N)=C(N)Oc3cc(C)n(Cc4ccccn4)c(=O)c32)cc2c1OCO2 (centres undefined) | 6.3e-09 | · | i | i | · |
| CCCC(c1nnnn1CCOC)N1CCN(C(=O)c2ccco2)CC1 (centres undefined) | 3.4e-09 | 4% | i | i | 0.8% |
| Nc1nnc(SCc2ccc(F)cc2Cl)s1 | 2.6e-08 | 12% | i | i | 5.4% |
| COc1cc(C2NC(=O)NC(C)=C2C(=O)OCC2CCCO2)ccc1O (centres undefined) | · | 2% | · | · | 0.2% |
| Cc1ccc(C(CC(=O)N2CCOCC2)c2ccco2)cc1 (centres undefined) | 1e-09 | -2% | i | i | 2.8% |
| Cc1cc(NC(=O)COC(=O)CSc2nc3cc(Cl)ccc3n2Cc2ccccc2)no1 | 5.2e-09 | 1% | i | i | -1.8% |
| O=C(Nc1cccc(F)c1)C1CCN(C(=O)Cc2ccccc2)CC1 | · | 0% | · | · | -0.4% |
| COc1ccc(-c2nnc(SCC(=O)c3ccc(C)o3)o2)cc1 | 7.7e-09 | 15% | i | i | 2.0% |
| C[C@]1(C(=O)NCC2CC2)C=C[C@@H](Cc2ccccc2)N1C(=O)c1ccccc1 | · | ? | · | · | -2.4% |
| O=c1c(-c2cccc(Cl)c2)nc2cncnc2n1Cc1ccccc1Cl | 4.9e-09 | ? | i | i | 5.1% |
| CC(C)Oc1cc(O)c2c(=O)c(-c3ccc(O)cc3)coc2c1 | · | ? | · | · | 0.7% |
| COCCNC(=O)NC(=O)COC(=O)C12CC3CC(CC(NC(C)=O)(C3)C1)C2 | 1e-09 | 0% | i | i | -2.0% |
| Cc1c(NC(=O)C2CC=CCC2C(=O)O)c(=O)n(-c2ccccc2)n1C (centres undefined) | · | -1% | · | · | 0.8% |
| Cc1ccc(-n2c(SCc3cn4ccsc4n3)nc3ccccc3c2=O)cc1 | 3.5e-09 | ? | i | i | 1.4% |
| CN(CC[C@@H](Oc1ccc(-c2ccccc2)cc1)c1ccc(F)cc1)CC(=O)O | · | 2% | · | · | 0.4% |
| Cc1cc(C)c(NC(=O)CN2CCN(C)CC2)c(C)c1 | · | 3% | · | · | 1.9% |
| Cc1ccc(NC(=O)CN2C(=O)NC3(CCC(C)CC3)C2=O)c(Cl)c1 (centres undefined) | 1e-09 | -3% | i | i | -2.1% |
| Cc1ccc(NC(=O)c2ccc(F)c(S(=O)(=O)N3CCOCC3)c2)cc1F | 8.7e-09 | 17% | i | i | -1.3% |
| Cc1cccc(C)c1NC(=O)CSc1nnc(-c2ccoc2C)n1C | 1e-09 | 0% | i | i | 1.8% |
| COc1ccc(NC(=O)N2CCCC3(CCN(C(=O)c4cccc(F)c4)CC3)C2)cc1 | 2e-08 | 24% | i | i | 0.4% |
| COC(=O)c1cccc(S(=O)(=O)N2CCN(c3nc4ccccc4s3)CC2)c1 | 1e-09 | 11% | i | i | 0.1% |
| O=C(NCc1ccco1)c1cc(-c2cccc(Cl)c2)on1 | 1e-09 | 6% | i | i | 2.5% |
| O=C(Nc1nnc(CCN2CCCCC2)s1)C1CCCCC1 | 1e-09 | 9% | i | i | 6.8% |
| O=C(CSc1ncnc2c1oc1ccccc12)OCc1ccccc1 | 1e-09 | ? | i | i | 3.3% |
| O=C(CCNc1ccc(F)c(Cl)c1)c1ccco1 | · | ? | · | · | -1.3% |
| Cc1cccc(-c2c3c(=O)n(C)c(=O)n(C)c3cn2C(C)C)c1 | 1.1e-09 | 4% | i | i | 4.3% |
| COCCNC(=O)c1sc2nc(-c3ccccc3)cn2c1C | 2.4e-09 | 10% | i | i | 1.2% |
| CCOC(=O)N(C)c1ccc(C(O)(C(F)(F)F)C(F)(F)F)cc1 | 6.8e-09 | -4% | i | i | -2.5% |
| CC(C)(C)C1=C(C#N)C(c2cc3c(cc2Br)OCO3)C(C#N)=C(N)O1 (centres undefined) | 3.9e-08 | ? | i | i | 4.0% |
| Cc1ccc2c(c1)c1c3n2CCN(C(=O)C2CC2)C3CCC1 (centres undefined) | · | ? | · | · | 5.8% |
| CCN(CC)CCCN1C(=O)C(=O)/C(=C(/O)c2ccc3c(c2)CC(C)O3)C1c1cccnc1 (centres undefined) | 1.6e-09 | · | i | i | · |
| CC(NC(=O)CNC(=O)OCc1ccccc1)C(=O)N1CC(O)CC1C(=O)OCc1ccccc1 (centres undefined) | 1e-09 | 8%[11.4 µM] | i | i | 3.2% |
| COc1cc(Nc2cc(C)nc3ncnn23)cc(OC)c1 | · | 9% | · | · | -1.6% |
| COc1cccc(OC)c1C(=O)N1CCOCC1 | 2.8e-08 | 6% | i | i | -2.4% |
| COc1cccc(-c2nnc(SCC(=O)N3CCOCC3)o2)c1 | 3e-08 | -7% | i | i | -0.2% |
| C=CCNC(=O)C1CC(=O)N(c2ccc(OCC(=O)NCc3ccccc3)cc2)C1 (centres undefined) | 6.8e-09 | -8% | i | i | 0.2% |
| CCOC(=O)c1c(C)c2c(n1C)CCC/C2=N\O | 6.7e-08 | · | i | i | 0.8% |
| Cn1c(=O)n(C)c2cc(S(=O)(=O)N3CCOCC3)ccc21 | 4.4e-09 | 9% | i | i | -0.5% |
| CCN1CCCC1CN(Cc1cc2cc(C)ccc2[nH]c1=O)C(=O)Nc1ccccc1OC (centres undefined) | 4.3e-09 | 22% | i | i | 0.4% |
| N#CC(C(=O)OC1CCCCC1)c1nc2ccccc2nc1N1CCOCC1 (centres undefined) | 2.7e-09 | 28% | i | i | 5.3% |
| c1ccc(Cn2c(Nn3cnnc3)nc3ccccc32)cc1 | 1.9e-08 | 3% | i | i | 1.0% |
| CN(C)C(=O)c1ccc(-c2nc(N(C)C)c3ccccc3n2)cc1 | 1.1e-08 | 6% | i | i | -0.5% |
| C#CCOCCCC(=O)O | 3.7e-08 | ? | i | i | -1.6%[11.5 µM] |
| CC1CC(C)CN(c2nc3c(c(=O)[nH]c(=O)n3C)n2CCCSc2nc3ccccc3s2)C1 (centres undefined) | 4.1e-08 | · | i | i | 0.1% |
| O=C(Nc1ccccc1)c1cccc(N2CCCC2=O)c1 | 1.1e-08 | ? | i | i | -1.2% |
| N#Cc1nc(-c2ccc(F)cc2)oc1NCc1cccc2c1OCO2 | · | ? | · | · | -1.3% |
| O=C(C1CCC(C(=O)N2CCCCC2)CC1)N1CCCCC1 (centres undefined) | 1.5e-08 | -3% | i | i | 0.9% |
| CC(C)(C)c1ccc(-c2nnc3sc(-c4ccncc4)nn23)cc1 | 4.9e-09 | 3% | i | i | -1.5% |
| CC(=O)OCC(=O)[C@H]1CC[C@H]2[C@@H]3CCC4=CC(=O)CC[C@]4(C)[C@H]3CC[C@]12C | 1e-09 | · | i | i | · |
| O=C(Nc1ccccc1C(F)(F)F)c1cc(S(=O)(=O)N2CCOCC2)ccc1F | 1.3e-08 | 6% | i | i | -0.5% |
| CC(=O)N1CCc2cc(Br)cc(S(=O)(=O)NCCN3CCCCC3C)c21 (centres undefined) | 1e-09 | 16% | i | i | 0.6% |
| Cc1noc(C)c1S(=O)(=O)N1CCCC(C(=O)Nc2cccnc2)C1 (centres undefined) | 1e-09 | 1% | i | i | -0.6% |
| COc1ccc(-c2noc(CN(C(=O)c3ccc(OC(C)=O)cc3)C(C)C)n2)cc1OC | 4.7e-09 | 25µM* | i | i | -0.8% |
| Cc1cccc(NC(=O)C2CCN(S(=O)(=O)c3cccc4cccnc34)CC2)c1 | · | 7% | · | · | 2.1% |
| N[C@@H](C(=O)O)c1ccc(C(=O)O)c(O)c1 | · | 2% | · | · | -0.3% |
| CCSc1nnc(NC(=O)CSc2nnc(Cc3cccn3C)n2-c2ccc(F)cc2)s1 | 1.4e-08 | -2% | i | i | 1.2% |
| COc1ccc(Cl)cc1N(C)C(=O)CCc1nc(-c2ccc(C)cc2)no1 | 1e-09 | ? | i | i | 0.3% |
| Cc1nn(-c2cccc(C(=O)O)c2)c(C)c1Oc1ccccc1O | 1.9e-09 | 1% | i | i | -0.9% |

Entries of single compounds as entered above. Values in the order: A647 fluor	TSHR agonist	Resorufin autofl	A488 autofl	AID923
Record of CC(C)(C)C1=C(C#N)C(c2cc3c(cc2Br)OCO3)C(C#N)=C(N)O1 (centres undefined) = 3.9e-08	?	i	i	4.0%
Record of CC(NC(=O)CNC(=O)OCc1ccccc1)C(=O)N1CC(O)CC1C(=O)OCc1ccccc1 (centres undefined) = 1e-09	8%[11.4 µM]	i	i	3.2%
Record of Cn1c(=O)n(C)c2cc(S(=O)(=O)N3CCOCC3)ccc21 = 4.4e-09	9%	i	i	-0.5%
Record of CCN(CC)CCCN1C(=O)C(=O)/C(=C(/O)c2ccc3c(c2)CC(C)O3)C1c1cccnc1 (centres undefined) = 1.6e-09	·	i	i	·

Following part:
Each structure is followed by: A647 fluor | TSHR agonist | Resorufin autofl | A488 autofl | AID923
- Cc1cc(C(=O)COC(=O)C2=COCCO2)c(C)n1-c1ccc2c(c1)OCO2
    1e-09 | ? | i | i | -0.1%
- CC(C)OCCCNc1nc2c(c(=O)n(Cc3ccccc3F)c(=O)n2C)n1C
    3.3e-09 | -4% | i | i | 0.2%
- Cc1oc(-c2ccccc2F)nc1CS(=O)CC(=O)NCc1ccc2c(c1)OCO2 (centres undefined)
    · | 11% | · | · | 3.6%
- O=C(Cn1c(=O)sc2ccccc21)Nc1nc2c(s1)CCCC2
    5.8e-08 | -7% | i | i | -2.2%
- CCOc1ccccc1C1C(C#N)=C(N)Oc2cc(C)n(Cc3ccccn3)c(=O)c21 (centres undefined)
    3.8e-08 | 0% | i | i | 2.1%
- COC(=O)c1ccc(N2C(=O)CC(Sc3n[nH]c(C)n3)C2=O)cc1 (centres undefined)
    · | -10% | · | · | 1.1%
- O=C(C[N+]12CN3CN(CN(C3)C1)C2)c1ccc(-c2ccccc2)cc1
    3.6e-08 | 1%[11.4 µM] | i | i | -1.3%[11.5 µM]
- CCc1c(C)nc2ncnn2c1N1CCCC(C(=O)NCc2ccco2)C1 (centres undefined)
    4.6e-09 | -1% | i | i | -1.7%
- Nc1ccccc1NC1=CC(=O)CC(c2ccco2)C1 (centres undefined)
    5.4e-08 | 11% | i | i | -0.5%
- O=C1c2cccnc2C(=O)N1c1ccccc1-c1ccccc1
    2.3e-09 | 5% | i | i | -1.4%
- COC(=O)c1cc(OC)c(OC)cc1NC(=O)CC1CCCCC1
    3.6e-08 | ? | i | i | -0.8%
- CCCOc1ccccc1Cn1c(=O)oc2ccc(C)cc21
    2.5e-08 | ? | i | i | -0.5%
- CCNc1nc(NCC)n2c(SCC(=O)O)nnc2n1
    1e-09 | 11% | i | i | -0.3%
- CC(C)CCNC(=O)CN(CC1CCCO1)C(=O)CCC(=O)Nc1nccs1 (centres undefined)
    1e-09 | -5% | i | i | 0.3%
- CCCCCn1c(=O)[nH]c2cc(C(=O)O)ccc2c1=O
    1e-09 | 6% | i | i | 1.1%
- O=c1[nH]c(=S)c2[nH]c(=O)n(-c3ccccc3)c2[nH]1
    4.2e-08 | ? | i | i | 1.9%[11.5 µM]
- O=c1[nH]c2cc(Cl)cc(Cl)c2[nH]c1=O
    6.5e-08 | 8% | i | i | 1.1%
